# Screening data as filed in PubChem BioAssay.
# Bfl-1 A1 inh: inhibitors of the anti-apoptotic protein A1, read as caspase activation | MEF A1-2A-BIM cells, Caspase-Glo 3/7 luminescence, 3 h; percent of clofoctol response, vehicle zero | caspase activation, % (no concentration beside the values) | hit rate 0.066% among 330,000 | AID 2462;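 active means over half of replicate activation scores above 10%, or exactly half above 10 with the replicate mean above 10; inconclusive means replicate mean below 10 yet half the replicates above 10; inactive means over half of replicates below 10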;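 further: wells of about 30 µL received 50 nL stock; many hits fall short of the cut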
# Calb FLC: C. albicans growth modulation with fluconazole | C. albicans CaCi-2 (fluconazole-resistant clinical isolate) + fluconazole, Alamar Blue growth, 48 h | growth inhibition, % (concentration not given with the values) | hit rate 0.57% among 300,000 | AID 1979;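 active means most replicates above 75%; inconclusive means exactly half above 75%; inactive means most below 75%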;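 further: all wells also contain fluconazole at 8 µg/ml as a sub-toxic cotreatment; 0% = median of DMSO wells and 100% = median of geldanamycin control wells; wells of about 8 µL received 7.5 nL stock; the first replicate is given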
# Beta apoptosis: blocks beta cell apoptosis. hit rate 0.8% among 300,000. AID 435005. protection from apoptosis, % (test concentration not listed). INS-1E cytokine-induced death, ATP luminescence, 48 h; percent of positive-control rescue, neutral wells zero;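 active means all replicates at 75% or more, or half of them and the mean; inconclusive means half reach 75% but not the mean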;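 further: 0% = cytokine-treated negative control wells and 100% = positive control rescue; higher means more ATP so stronger rescue from cytokine killing; wells of about 40 µL received 100 nL stock; the first replicate is given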
# AF4-AF9 inh: inhibitors of human MLL-AF4/AF9 interaction; inhibition, % at 10 µM; AlphaScreen, biotin-AF4 peptide binding to FLAG-AF9; AID 651704; hit rate 0.47% among 350,000;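 active means every replicate reaching a set inhibition limit, whatever the replicate mean, cut at about 25% in these data; inconclusive means mean inhibition reaches that limit but some replicates miss it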;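 further: 0% = plate neutral control median and 100% = total signal loss; the record names both 10 and 1 µM as test concentration; the first replicate is given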
# Target sequence (P42568 whole entry, looked up): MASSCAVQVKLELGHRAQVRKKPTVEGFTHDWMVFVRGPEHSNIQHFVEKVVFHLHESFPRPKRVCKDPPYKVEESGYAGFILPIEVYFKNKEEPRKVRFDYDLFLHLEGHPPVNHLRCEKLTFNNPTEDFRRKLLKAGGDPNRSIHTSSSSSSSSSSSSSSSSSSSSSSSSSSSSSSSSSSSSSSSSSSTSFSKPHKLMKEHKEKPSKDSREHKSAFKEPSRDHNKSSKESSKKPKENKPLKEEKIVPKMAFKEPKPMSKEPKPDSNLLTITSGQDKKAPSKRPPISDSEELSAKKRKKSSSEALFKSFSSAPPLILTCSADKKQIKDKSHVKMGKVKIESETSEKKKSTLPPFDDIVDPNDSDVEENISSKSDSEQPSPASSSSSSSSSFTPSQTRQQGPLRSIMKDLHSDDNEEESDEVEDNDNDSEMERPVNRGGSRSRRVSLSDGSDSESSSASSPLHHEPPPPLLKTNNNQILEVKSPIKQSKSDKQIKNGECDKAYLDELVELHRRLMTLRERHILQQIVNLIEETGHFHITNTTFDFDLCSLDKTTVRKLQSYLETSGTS
# Ecoli rRNA inh: inhibits bacterial ribosomal RNA function over humanized ribosomes; GFP signal change (wild-type ribosome), % (concentration not given with the values); hit rate 1.6% among 350,000; AID 720706; E. coli WT GFP vs humanized-ribosome RFP mutants, fluorescence, 24 h; hits give low values; DMSO median 0, no signal -100;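 active means significant combined selectivity score with lowered wild-type GFP, culture density cut under 30%, mutant RFP and density less affected; inactive means any of these conditions unmet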; further: one replicate is shown; some compounds called inactive have numbers as strong as hits
# T cruzi repl: blocks replication of Trypanosoma cruzi. T. cruzi beta-gal in NIH3T3, luminescence, 90 h. inhibition, % (test concentration not listed). AID 1885. hit rate 1.4% among 300,000;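 active means mean inhibition across valid replicates above about 55%, limit read from the data; inconclusive means mean below that limit but half or more replicates reach it; inactive means mean below it, under half of replicates reach it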;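 further: signal also drops with host cell toxicity which is not excluded here; 0% = plate median of DMSO wells and 100% = zero luminescence signal; higher percent means less beta-gal luminescence so fewer parasites; stock transfer was 50 nL into about 50 µL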
# RanGTP-Imp inh: disruptors of Ran-importin-beta complex formation – biochemical, FRET, CFP-Ran, YFP-importin-beta, homogeneous, primary screen; cell-free CFP-Ran/YFP-importin-beta FRET ratio; inhibition, % (no concentration beside the values); hit rate 1.1% among 300,000; AID 2216;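 active means most replicates above 15%; inconclusive means exactly half above 15%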;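 further: 0% = DMSO wells and 100% = Ran loaded with GDP instead of GTP; wells of about 40 µL received 100 nL stock; the first replicate is given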
# Vif A3G: HIV-1 Vif–A3G interaction blockers – biochemical, TR-FRET, GST-Vif 1-94, biotin-A3G peptide, dose response retest, primary screen (AID 1117319) | TR-FRET GST-Vif / biotin-A3G peptide binding; higher % means a stronger effect; test concentration not given here; strong numbers were not always called active | inhibition, %; hits with a dose series show IC50 in µM | hit rate 0.57% among 260,000;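 active means above the screen mean plus three standard deviations and confirmed in dose response; inconclusive means results disagree or hit not tested in dose response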;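 further: Vif residues 1-94 fused to GST binding biotinylated APOBEC3G peptide 110-148; 0% = full assay without inhibitor and 100% = GST in place of GST-Vif; retest series ran down from 100 µM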
# Ecoli rRNA inh OD600: also measured in Ecoli rRNA inh; calls as there; OD600 change, %; measured here: OD600 growth;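 optical density of the mix in the first replicate; 0 = DMSO median and -100 = no signal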
# Ecoli rRNA inh RFP: further read-out of Ecoli rRNA inh, marked with its call; RFP signal change, %; measured here: RFP humanized mutant strains;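 first replicate; 0 = DMSO median and -100 = no signal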
# The depositor's hits bear a star; ? = inconclusive; / = not tested or not shown; & = joins results of further samples. The list is partial; rates above refer to the full screens.
SMILES,Bfl-1 A1 inh,Calb FLC,Beta apoptosis,AF4-AF9 inh,Ecoli rRNA inh,Ecoli rRNA inh OD600,Ecoli rRNA inh RFP,T cruzi repl,RanGTP-Imp inh,Vif A3G
CCOCCn1c(=NC(=O)CSCC(=O)N2CCOCC2)sc2cc(OC)ccc21,0.2,1,21,0.3,-2,-5,1.7,4,-4.2,/
Cc1cc(C(=O)Nc2ccc(Cl)c(S(=O)(=O)N3CCOCC3)c2)c2ccccc2n1,-1.0,/,9,1.1,-12,-7,4.1,/,/,-7%
Cc1ccc(S(=O)(=O)N(C)c2ccc(OCC(=O)N3CCCCC3)cc2)cc1,-0.7,5,-2,0.3,-2,-20,4.2,9,5.0,1%
c1ccc(-c2noc(-c3ccc4ccccc4c3)n2)nc1,-6.4,?,15,/,/,/,/,7,-2.2,10%
COc1ccc(C(=O)/C=C/Nc2ccc(S(=O)(=O)Nc3onc(C)c3C)cc2)cc1,0.0,-9,-8,/,/,/,/,-1,3.0,?
CC1CN(c2sc(S(C)(=O)=O)nc2S(=O)(=O)c2ccc(Cl)cc2)CC(C)O1 (centres undefined),2.0,-1,-8,-2.5,24,19,2.1,8,16*,/
Cc1ccccc1N1CC(=O)N(c2ccccc2C)CC1=O,0.7,-5,0,/,/,/,/,1,-1.6,6%
COc1ccc(OC)c(CNC(=O)CCCc2cn(C)c3ccccc23)c1,0.6,7,/,0.7,-9,-24,-1.7,5,0.4,1%
Cc1ccc2c3c(c(SCC(=O)Nc4nonc4C)nc2c1)CCCC3,-0.3,3,-2,/,/,/,/,1,0.1,?
COc1ccccc1NC(=O)CSc1nc2c(oc3ccccc32)c(=O)n1C,1.2,23,7,2.2,5,6,-2.0,3,7.5,-1%
O=C(Cc1cccs1)Nc1nc2c(ccc3ccccc32)s1,1.2,15,5,/,/,/,/,15,1.5,?
CCOc1ccc(C(=O)N(c2ccccn2)C2CCCCC2)cc1,0.8,-8,-5,-2.0,-5,-2,1.2,2,1.4,30%
CN(C)C1(CNC(=O)C2CCN(S(=O)(=O)c3ccccc3C(F)(F)F)CC2)CCCCC1,-0.8,3,0,2.2,7,9,3.6,12,-3.6,/
COc1cccc(/C=N/NC(=O)CNC(=O)c2ccncc2)c1O,-0.6,-10,8,-6.1,-3,5,-0.8,-11,-7.7,/
Cc1ccc(NC(=O)CNC(c2ccccc2)c2ccccc2)c(F)c1,0.5,11,0,0.8,-22,-43,2.7,22,-0.5,/
COc1ccc(-c2nn(-c3ccccc3)cc2C(=O)Nc2cccc(S(=O)(=O)NC3=NCCC3)c2)cc1,0.0,/,6,1.6,-6,0,2.1,/,/,/
CCc1cc2ccc(OC)cc2nc1SCC(=O)Nc1cc(C)on1,-0.6,-5,18,/,/,/,/,15,1.4,2%
COc1ccccc1OCCC(=O)NNC(=O)c1ccccc1F,-1.7,/,-2,-0.6,4,6,-2.3,/,/,-1%
Cc1ccc(S(=O)(=O)Nc2cccc3c2O[C@H](CN(C)Cc2ccccc2)[C@@H](C)CN([C@H](C)CO)C3=O)cc1,1.9,/,2,-1.0&0.7,2&-4,4&-10,-0.5&-5.8,/,/,/
CCCC(=O)N1CC(=O)Nc2ccc(C)cc2C1c1ccccc1 (centres undefined),-1.0,4,4,2.8,8,4,-1.8,11,-2.3,-7%
O=C(CCNC(=O)c1ccco1)Nc1ccccc1,0.2,3,-1,-2.0,10,14,1.4,-2,1.8,/
Cc1nc(NC(=O)C(C)Oc2cccc(Cl)c2)sc1C(=O)N(C)C (centres undefined),0.5,2,-9,/,/,/,/,4,1.7,-8%
C=CCNC1=C(Cl)C(=O)N(Cc2ccccc2)C1=O,1.0,0,3,-4.1,1,-10,-1.9,-1,-7.0,/
CC(C)(C)C(=O)/C=c1\[nH]c(=O)/c(=C\c2ccc(C#N)cc2)s1,1.3,2,3,/,/,/,/,5,0.9,-2%
O=C(O)c1cc(S(=O)(=O)N2CCN(c3ccccn3)CC2)ccc1Cl,0.7,8,2,-5.1,6,5,-1.2,-8,3.3,2%
CCS(=O)(=O)Nc1cccc(C2=NN(S(=O)(=O)c3ccc(F)cc3)C(c3cccs3)C2)c1 (centres undefined),0.2,-2,-7,/,/,/,/,13,10,24%
O=C(NCCCN1CCCC1)c1ccc2c(c1)N(Cc1cccc(Cl)c1)C(=O)c1ccccc1S2=O (centres undefined),-0.3,-6,-4,7.3,3,6,6.1,12,6.8,?
C[n+]1cc[nH]c1SCC(=O)c1ccc(Cl)cc1,-2.9,-6,0,2.4,-23,-13,3.8,-28,5.7,/
Cc1nn(C)c(Oc2cccc(Cl)c2)c1C#N,1.1,6,-8,-1.4,0,-4,-1.5,2,1.9,0%
CC(CN1CCCCC1)OC(=O)C1c2ccccc2Oc2ccccc21 (centres undefined),-0.4,26,/,/,/,/,/,-7,6.7,?
O=S(=O)(c1ccccc1)c1nc(-c2ccco2)oc1NCc1ccco1,-1.3,2,/,/,/,/,/,8,1.5,5%
CN(Cc1ccccc1)c1ccc(S(=O)(=O)N2CCOCC2)cn1,-0.2,-7,2,/,/,/,/,0,7.6,8%
COc1cc(OC)cc(-c2cn[nH]c2N)c1,0.5,-9,-4,-4.1,9,4,2.1,8,3.9,/
CCCN1C(=O)c2cc(C(=O)O)ccc2C1O (centres undefined),0.6,6,-1,11,1,-2,-2.2,-4,-2.8,-3%
O=C(/C=C\Nc1ccc2c(c1)OCO2)c1ccc(Cl)s1,-7.9,2,-5,-0.9,9,6,1.5,-2,0.5,/
O=C(NCc1ccccn1)c1cccc(S(=O)(=O)N2CCCCC2)c1,1.0,/,-7,-3.3,3,4,-2.2,/,/,/
CC(=O)n1cc(CO)c2ccccc21,1.1,-3,/,-1.4,2,15,-2.1,-12,-4.3,/
CC(C)c1ccccc1OCCCN1CCCC1,0.9,-15,/,-2.3,-2,-9,0.6,37,2.5,/
COc1ccccc1C(C#N)c1cccc(Cl)n1 (centres undefined),-0.2,8,-5,-3.1,-1,-2,1.1,4,4.2,-8%
Cc1ccccc1-n1c(C)nnc1SCc1nc2ccccc2s1,-1.0,-6,-4,1.4,-3,-5,0.5,13,-0.6,-6%
CSCCCN1CCCC(CO)(Cc2ccccc2F)C1 (centres undefined),0.1,-7,-1,4.5,2,5,-0.5,13,3.5,7%
O=C(NC1CCCC1)c1ccccc1-c1nc2ccccc2[nH]1,0.4,-12,-23,/,/,/,/,2,5.4,0%
O=C(c1cccc(-n2cccc2)c1)N1CCN(S(=O)(=O)c2ccc(F)cc2)CC1,-0.2,-8,0,6.2,-3,3,8.9,8,-3.2,/
COc1cccc(-c2ccc3nnc(SCC(=O)N4CCCC4)n3n2)c1,0.3,-6,-3,1.3,-6,6,-2.3,3,-3.5,-6%
Cn1c(CCNC(=O)c2ccccc2)nc2ccccc21,0.0,-6,-6,/,/,/,/,9,8.5,11%

# Continued, starting with the last 2 of the part before.
SMILES,Bfl-1 A1 inh,Calb FLC,Beta apoptosis,AF4-AF9 inh,Ecoli rRNA inh,Ecoli rRNA inh OD600,Ecoli rRNA inh RFP,T cruzi repl,RanGTP-Imp inh,Vif A3G
COc1cccc(-c2ccc3nnc(SCC(=O)N4CCCC4)n3n2)c1,0.3,-6,-3,1.3,-6,6,-2.3,3,-3.5,-6%
Cn1c(CCNC(=O)c2ccccc2)nc2ccccc21,0.0,-6,-6,/,/,/,/,9,8.5,11%
COCCCN(C(=S)NC(=O)c1ccc(Br)cc1)c1c(N)n(Cc2ccccc2)c(=O)[nH]c1=O,0.1,15,-4,-4.7,1,-4,4.7,-1,-1.9,-2%
Cc1nc2sc(C(c3ccco3)N3CCN(c4ccc(F)cc4)CC3)c(O)n2n1 (centres undefined),-0.1,-12,-1,7.8,6,-26,-17,-18,2.2,14%
O=C(CC12CC3CC(CC(C3)C1)C2)NCC(=O)OCc1cc(=O)oc2ccc3ccccc3c12,0.6,-2,-2,1.2,2,2,2.8,5,2.9,/
O=Cc1cccn1-c1ccc2ccccc2c1,0.7,1,1,-1.7,-10,-6,-2.0,-2,-6.8,-1%
COc1ccc(C(=S)N2CCN(c3ccccc3Cl)CC2)cc1OC,-0.4,1,-2,2.4,-11,-23,-4.0,-4,-1.8,/
CC(C)n1c(CSCc2ccc(Cl)cc2Cl)n[nH]c1=S,0.6,-40,-5,-4.9,-30,-34,-1.2,12,1.8,1%
CC1=C(c2ccc(F)cc2)[N+](=O)C(C)(C)N1[O-],1.1,15,/,-1.5,10,9,-9.5,-5,-2.1,8%
COc1cccc(C(=O)NCCS(=O)(=O)NCc2ccccn2)c1,0.2,-1,-2,-7.9,6,8,1.1,-3,-6.7,-4%
O=C(O)/C=C/C(=O)NCCNc1ncc(C(F)(F)F)cc1Cl,1.8,51,-4,-0.3,-3,2,-2.2,-6,?,3%
CCOc1ccc(N(C(=O)/C=C/C(=O)Nc2cc(C)on2)C(C(=O)NC2CCCC2)c2ccccc2C)cc1 (centres undefined),0.3,5,/,-0.5,-5,-10,15,1,4.1,-5%
CCOC(=O)N1CCN(C(=O)C2CCC(CNS(=O)(=O)c3ccc(Cl)cc3)CC2)CC1 (centres undefined),0.3,0,3,/,/,/,/,0,0.1,-2%
Cc1nn(CC(=O)N2CCN(c3ccccc3)CC2)c(=O)c2cccn12,0.2,-1,-9,-1.0,1,10,-2.9,2,-2.2,/
O=C1CCN(Cc2ccccc2)CCN1[C@H](CO)Cc1ccccc1,0.8,-6,-1,/,/,/,/,-8,-0.5,/

# Looked up by compound from above:
SMILES,Bfl-1 A1 inh,Calb FLC,Beta apoptosis,AF4-AF9 inh,Ecoli rRNA inh,Ecoli rRNA inh OD600,Ecoli rRNA inh RFP,T cruzi repl,RanGTP-Imp inh,Vif A3G
CCOc1ccc(N(C(=O)/C=C/C(=O)Nc2cc(C)on2)C(C(=O)NC2CCCC2)c2ccccc2C)cc1 (centres undefined),0.3,5,/,-0.5,-5,-10,15,1,4.1,-5%
CC(C)n1c(CSCc2ccc(Cl)cc2Cl)n[nH]c1=S,0.6,-40,-5,-4.9,-30,-34,-1.2,12,1.8,1%

# Record cards (already shown).
# Profile of `CCOCCn1c(=NC(=O)CSCC(=O)N2CCOCC2)sc2cc(OC)ccc21` → Bfl-1 A1 inh: 0.2; Calb FLC: 1; Beta apoptosis: 21; AF4-AF9 inh: 0.3; Ecoli rRNA inh: -2; Ecoli rRNA inh OD600: -5; Ecoli rRNA inh RFP: 1.7; T cruzi repl: 4; RanGTP-Imp inh: -4.2; Vif A3G: /
# Profile of `c1ccc(-c2noc(-c3ccc4ccccc4c3)n2)nc1` → Bfl-1 A1 inh: -6.4; Calb FLC: ?; Beta apoptosis: 15; AF4-AF9 inh: /; Ecoli rRNA inh: /; Ecoli rRNA inh OD600: /; Ecoli rRNA inh RFP: /; T cruzi repl: 7; RanGTP-Imp inh: -2.2; Vif A3G: 10%
